Bioassay records as filed in PubChem BioAssay.
D2 PAM = Beta-Arrestin HTS for Positive Allosteric Modulators of the Human D2 Dopamine Receptor: Potentiators; D(2) dopamine receptor (Homo sapiens), P14416; DiscoveRx D2 beta-arrestin cells, luminescence, 90 min; 100% = 57 uM dopamine signal; potentiation, % (no concentration beside the values); 360,000 compounds, 0.23% hits; AID 624464, 2012; active = potentiation of 50% or more; inconclusive = 30% to 50%; inactive = 30% or less;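 also: compound concentration not given in the record; tested on top of an EC20 dose of dopamine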
Target sequence (P14416 whole entry, looked up): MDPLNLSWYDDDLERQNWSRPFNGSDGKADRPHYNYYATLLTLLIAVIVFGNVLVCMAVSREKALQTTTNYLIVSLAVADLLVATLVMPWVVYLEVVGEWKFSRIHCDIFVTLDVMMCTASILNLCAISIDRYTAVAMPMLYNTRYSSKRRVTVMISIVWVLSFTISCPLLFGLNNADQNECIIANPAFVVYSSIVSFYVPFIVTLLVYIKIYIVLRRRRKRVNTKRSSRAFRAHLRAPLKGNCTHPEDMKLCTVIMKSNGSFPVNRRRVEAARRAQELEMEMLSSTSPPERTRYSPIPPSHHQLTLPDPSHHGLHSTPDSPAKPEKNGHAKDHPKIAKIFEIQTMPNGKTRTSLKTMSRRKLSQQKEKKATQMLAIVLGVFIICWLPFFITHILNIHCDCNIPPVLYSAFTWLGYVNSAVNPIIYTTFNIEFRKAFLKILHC
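D2 cells co-treated with compound plus 50 nM dopamine (EC20) for 90 min at 37 deg C to detect potentiation. Beta-arrestin recruitment was read as enzyme-fragment luminescence after 1 h at ambient temperature. Full response was set by 57 uM dopamine.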
Six1-Eya2 blk = qHTS Assay for Inhibitors of the Six1/Eya2 Interaction | 360,000 compounds, 0.56% hits | activity change, % (no concentration beside the values) | Homeobox protein SIX1 (Homo sapiens) + Protein phosphatase EYA2 (Homo sapiens), … | AID 651725, 2012 | AlphaScreen GST-Six1/His-Eya2 binding, biochemical; hits give low values; control for the full effect not named in the record; in the data active = activity change below about -65%; inconclusive = about -30% to -65%; inactive = above about -30%; also: % is scaled to controls: 0 for no effect and ±100 for the full control effect
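Homogeneous AlphaScreen proximity assay pairing GST-Six1 with His-tagged Eya2 (added as 5X mix: 250 nM and 500 nM) in 50 mM Tris pH 8.0, 300 mM NaCl, 1 mM TCEP. Glutathione donor and nickel acceptor beads; 1 h, 37 °C, dark.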
TRPML1 inh = qHTS for Inhibitors of the Human Mucolipin Transient Receptor Potential 1 (TRPML1). Mucolipin-1 (Homo sapiens), Q9GZU1. TRPML1-inducible cells, Ca2+ dye fluorescence, FDSS; hits give low values; inhibition of EC80 agonist-evoked calcium signal. activity change, negative = inhibition, % (concentration not given with the values). 390,000 compounds, 0.02% hits. AID 624415, 2012; in the data active means activity change below about -50%; inconclusive means about -30% to -50%; inactive means above about -30%;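 also: stimulus is agonist 54-4 at its EC80 concentration; % is scaled to controls: 0 for no effect and ±100 for the full control effect; the text of the record puts the active cut at -80%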
Target sequence (Q9GZU1 whole entry, looked up): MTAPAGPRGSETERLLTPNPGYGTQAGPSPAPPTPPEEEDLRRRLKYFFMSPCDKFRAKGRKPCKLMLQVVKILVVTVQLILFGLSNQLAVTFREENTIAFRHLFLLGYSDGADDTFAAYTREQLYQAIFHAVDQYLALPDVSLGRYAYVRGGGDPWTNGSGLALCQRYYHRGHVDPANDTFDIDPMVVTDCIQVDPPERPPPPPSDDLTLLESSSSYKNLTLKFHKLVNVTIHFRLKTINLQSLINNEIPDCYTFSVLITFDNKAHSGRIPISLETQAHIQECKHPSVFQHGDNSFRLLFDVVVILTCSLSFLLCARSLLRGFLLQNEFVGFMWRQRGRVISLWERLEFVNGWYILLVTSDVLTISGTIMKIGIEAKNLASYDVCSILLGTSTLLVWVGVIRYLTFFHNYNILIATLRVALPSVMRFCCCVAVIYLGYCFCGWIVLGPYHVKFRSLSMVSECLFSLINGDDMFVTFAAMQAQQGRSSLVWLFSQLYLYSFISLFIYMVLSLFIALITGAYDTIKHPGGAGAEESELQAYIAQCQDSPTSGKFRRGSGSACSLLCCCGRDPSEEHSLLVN
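Calcium fluorescence in TRPML1-DL cells induced overnight with Tet: a 110 s read after compound pin addition, then a 110 s antagonist read after challenge with 54-4 at 4 uM final (EC80).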
TRPML1 agonist = qHTS for Agonists of the Human Mucolipin Transient Receptor Potential 1 (TRPML1); 410,000 compounds, 0.12% hits; TRPML1-expressing cells, Ca2+ dye fluorescence, FDSS; host cell line not named in the record; reference of the full effect not given here; activation, % (no concentration beside the values); in the data active = activation above about 50%; inconclusive = about 30% to 50%; inactive = below about 30%; also: 0% is about no effect; the text of the record puts the active cut at 80%
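Tetracycline-induced TRPML1-DL cells are seeded and incubated overnight before loading with a no-wash Ca2+ dye and quencher. Agonist activity is taken from the 110 s fluorescence read following compound pin-transfer on an FDSS, before EC80 54-4 challenge.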
TRPV1 potentiator = HTS Assay for Compounds that Act as Potentiators of the Vanilloid Receptor 1. Transient receptor potential cation channel subfamily V member 1 (Homo sapiens), Q8NER1. TRPV1-expressing cells, Fluo-8 calcium influx, capsaicin EC20 potentiation; host cell line not named in the record; control for the full effect not named in the record. potentiation, % at 8.33 µM. 320,000 compounds, 0.02% hits; active means potentiation above 80%; inconclusive means 30% to 80%; inactive means below 30%; also: 0% is about no effect
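TRPV1-expressing cells were cultured overnight at 35.5C and loaded with Fluo-8 calcium dye for 40 to 90 min at room temperature. After a 10 s baseline, compound was added and calcium influx was read kinetically for 3 min (ex 480/em 520 nm).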
CtBP-E1A inh = qHTS Assay for Inhibitors of the CtBP/E1A Interaction. CtBP / adenovirus E1A interaction (AlphaScreen). AlphaScreen GST-E1A/His-CtBP binding, 1536-well; hits give low values; control for the full effect not named in the record. activity change, % (test concentration not listed). 340,000 compounds, 0.49% hits. AID 651724, 2012; in the data active means activity change below about -65%; inconclusive means about -30% to -65%; inactive means above about -30%; also: % is scaled to controls: 0 for no effect and ±100 for the full control effect
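In 5 uL wells, 23 nL compound meets equimolar GST-E1A and His-CtBP (5X stock 125 nM each) for 2 h, 37 °C. Beads (5X, 50 ug/mL) then 1 h, 37 °C, dark.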
Starred values were filed as active, the others as inactive; ? = inconclusive; . = not tested or not shown; & = joins results of further samples.

1. CCC(C)(C)NC(=O)c1ccc(S(=O)(=O)N(C)c2ccccc2OC)cc1
2. COCCNC(=O)C(c1ccc(C)cc1)N(C(=O)CCC(=O)Nc1ccccn1)c1ccccc1C (stereo not given)
3. Cc1cc(C)nc(SCC(=O)O)n1
4. CC1C(=O)CC(c2ccc([N+](=O)[O-])cc2)NC1c1ccc([N+](=O)[O-])cc1 (stereo not given)
5. O=C(NCCc1ccc(Cl)cc1)C12CC3CC(CC(O)(C3)C1)C2
6. COc1ccccc1C(CNc1ncnc2sc(C)c(C)c12)N(C)C (stereo not given)

Assay by compound	1	2	3	4	5	6
D2 PAM	-19	-6	-4	1	-5	-8
Six1-Eya2 blk	9	8	5	-11	3	10
TRPML1 inh	1	28	-10	?	-1	-10
TRPML1 agonist	-1.2	-1.1	-0.3	0.1	-0.6	-0.8
TRPV1 potentiator	-11	2	17	7	-12	16
CtBP-E1A inh	1	20	10	0	3	14

7. OCC1(Cc2ccccc2)CCCN(Cc2ccc3c(c2)OCCO3)C1 (stereo not given)
8. O=C(Nc1ccc2nc(-c3cccnc3)[nH]c2c1)c1ccccc1F
9. O=C(C(Cl)c1ccccc1)N1CCOCC1 (stereo not given)
10. CN(N=Nc1nc[nH]c1C(N)=O)C1CCCCC1
11. CC(C)CCNC(=O)CN(Cc1ccc2c(c1)OCO2)C(=O)Cn1nnc(-c2cccs2)n1
12. CCN(C[C@H]1N[C@@](Cc2ccccc2)(C(=O)OC)[C@H]2C(=O)N(Cc3ccccc3)C(=O)[C@@H]12)S(=O)(=O)c1ccc(OC)cc1

Assay by compound	7	8	9	10	11	12
D2 PAM	-29	18	1	-2	-12	12
Six1-Eya2 blk	0	-23	10	9	-5	-3
TRPML1 inh	-25	-10	-4	.	8	38
TRPML1 agonist	0.0	-0.4	1.2	-0.6	0.0	-0.5
TRPV1 potentiator	-3	-11	-3	.	-18	.
CtBP-E1A inh	-1	?	3	-13	8	-7

13. CCC1CCCCN1C(=O)N[C@@H](CCSC)C(=O)OC (stereo not given in full)
14. Cn1c(=O)cc(OCCCC(=O)N2CCN(Cc3ccc4c(c3)OCO4)CC2)c2ccccc21
15. CCOc1ccc(C(=O)Oc2cc(C)[nH]c(=O)c2[N+](=O)[O-])cc1OCC
16. CCOC(=O)c1cc(=O)n2nc(-c3ccc(C)cc3)nc2s1
17. C[C@H](NC(=O)CCn1nnc2ccccc2c1=O)C(=O)O
18. COc1ccc(C(=O)Nc2cnc3ccccn3c2=O)cc1

Assay by compound	13	14	15	16	17	18
D2 PAM	-3	-39	-6	-15	-6	-10
Six1-Eya2 blk	6	-8	4	3	4	3
TRPML1 inh	1	3	-6	-8	-8	22&3
TRPML1 agonist	0.7	0.6	1.3	1.3	0.7	-0.1&-0.5
TRPV1 potentiator	5	-6	5	14	-10	7
CtBP-E1A inh	2	-3	.	4	.	-8

Filtered by structure: the entries above containing an NH in an aromatic ring.
8. O=C(Nc1ccc2nc(-c3cccnc3)[nH]c2c1)c1ccccc1F
10. CN(N=Nc1nc[nH]c1C(N)=O)C1CCCCC1
15. CCOc1ccc(C(=O)Oc2cc(C)[nH]c(=O)c2[N+](=O)[O-])cc1OCC

Assay by compound	8	10	15
D2 PAM	18	-2	-6
Six1-Eya2 blk	-23	9	4
TRPML1 inh	-10	.	-6
TRPML1 agonist	-0.4	-0.6	1.3
TRPV1 potentiator	-11	.	5
CtBP-E1A inh	?	-13	.

(next part)
19. C=CCOc1ccc(C2c3c(oc4ccccc4c3=O)C(=O)N2CCCN2CCOCC2)cc1 (stereo not given)
20. CCOc1ccc(NS(=O)(=O)c2ccc(C(=O)NCc3cccnc3)cc2)cc1
21. CCCOc1ccc(F)cc1-c1cc(C(=O)NCc2cc(OC)cc(OC)c2)[nH]n1
22. Cc1cc(C(=O)N/N=C/C=C/c2ccc3c(c2)OCO3)n[nH]1
23. CCCS(=O)(=O)N1CCC(C(=O)N2CCN(Cc3ccccc3)CC2)CC1
24. CCc1nnc(N/N=C/c2ccccc2Cl)n1N

Assay by compound	19	20	21	22	23	24
D2 PAM	-6	-9	-2	-15	-2	-15
Six1-Eya2 blk	-1	2	-8	-29	4	2
TRPML1 inh	5	3	.	7	-3	-7
TRPML1 agonist	0.6	3.7	-0.1	0.0	0.4	0.3
TRPV1 potentiator	2	-4	.	6	-23	-1
CtBP-E1A inh	1	-1	-15	-7	7	0

25. COc1cc(NC(=O)Nc2nnc([C@H]3C[C@H](O)[C@@H](CO)O3)s2)cc(OC)c1
26. CC1CCCN(CCCNC(=O)c2ccc(CS(=O)(=O)c3c(Cl)cccc3Cl)o2)C1 (stereo not given)
27. COc1cc(/C=N/n2cnn(Cc3ccccc3Cl)c2=S)cc(OC)c1OC
28. COc1ccc(C2C(C#N)=C(N)OC3=C2C(=O)CC(C)(C)C3)c(OC)c1OC (stereo not given)
29. CCOC(=O)c1c(NC(=O)CC2Sc3ccc(C(F)(F)F)cc3NC2=O)sc(C)c1C (stereo not given)
30. CC(=O)Nc1c(O)nc(SCC(=O)N2CCN(c3ccc(F)cc3)CC2)[nH]c1=O

Assay by compound	25	26	27	28	29	30
D2 PAM	-6	-33	-1	-19	-11	-9
Six1-Eya2 blk	-3	-1	-3	2	2	5
TRPML1 inh	.	3	7	7	8	-21
TRPML1 agonist	-0.4	0.0	2.5	-1.0	-0.5	1.7
TRPV1 potentiator	.	-7	25	-1	17	?
CtBP-E1A inh	-1	-2	-2	-1	2	0

31. O=[N+]([O-])c1ccc(Nc2nc(N/N=C\c3ccc4c(c3)OCO4)nc(N3CCCCC3)n2)cc1
32. COc1cc(COCC(O)CN2CCc3ccccc3C2)cc(OC)c1OC (stereo not given)
33. O=C(NC(Cc1ccccc1)C(=O)N1CCc2ccccc2C1)c1ccccc1 (stereo not given)
34. Cc1nn(CC(=O)Nc2cc(S(=O)(=O)N(C)C)ccc2Cl)c(C)c1[N+](=O)[O-]
35. CCOc1ccc(NC(=O)/C(C#N)=C\c2ccc(N3CCCC3)c(C)c2)cc1
36. CC1CCCN(C(=O)CNC(=O)Cn2ccc3ccccc3c2=O)C1 (stereo not given)

Assay by compound	31	32	33	34	35	36
D2 PAM	-3	-7	4	-24	-6	-2
Six1-Eya2 blk	-13	8	-5	3	9	-3
TRPML1 inh	-8	-8	19	-5	-3	-2
TRPML1 agonist	0.8	1.4	-0.2	0.3	14	-0.4
TRPV1 potentiator	6	-2	-30	-3	.	.
CtBP-E1A inh	-11	-1	0	10	10	4

Later entries.
item	molecule	D2 PAM	Six1-Eya2 blk	TRPML1 inh	TRPML1 agonist	TRPV1 potentiator	CtBP-E1A inh
37	COc1cccc(N2CCN(S(=O)(=O)c3c(C)[nH]c(C)c3C(=O)N3CCCC3)CC2)c1	-12	-3	-13	-0.2	-1	-1
38	COc1ccc(-c2cc(=O)c3cc(O)ccc3o2)cc1	-15	-26	.	.	7	-8
39	C[C@@H](NC(=O)c1[nH]cnc1C(=O)Nc1ccccc1F)c1ccccc1	-1	-7	-2	1.1	.	-8
40	COc1cc(C(=O)COC(=O)CNC(=O)C2CCCCC2)cc(OC)c1OC	-23	3	-14	0.0	6	-1
41	Cn1cc(Cl)c(C(=O)N(Cc2ccccc2)c2ccccn2)n1	-4	0	-2	-0.7	7	2
42	COc1cccc(NS(=O)(=O)c2ccc3[nH]c4c(c3c2)CCCCCC4)c1	.	.	24	2.6	18	.
43	CC1=C(C(=O)OCc2ccccc2)C(c2ccsc2)C(C#N)=C(N)O1 (stereo not given)	0	16	-5	3.7	-4	0
44	COC(=O)c1ccc(NC(=O)C2CC2)o1	22	-1	-6	-0.3	-5	-4
45	COc1cccc(NC(=O)NC2CCCCCCC2)c1	-20	1	37	1.3	-17	-16
46	C=CCc1ccc(OC(=O)c2ccccc2)c(OC)c1	-18	53	.	.	-4	54
47	O=C(CCCc1ccccc1)Nc1nnc(C(F)(F)F)s1	3	1	20	1.8	-10	5
48	CCOC(=O)C1=C(COC(=O)c2ccc(C)c(S(=O)(=O)N3CCOCC3)c2)NC(=O)NC1C (stereo not given)	-3	4	4	-0.7	3	-4
49	CCOc1ccccc1N1CCN(C(=S)NCc2ccccc2)CC1	-13	-11	14	0.9	-7	-7
50	COc1cccc(CNC(=O)c2ccc(CS(=O)c3ccccc3)o2)c1 (stereo not given)	-3	4	30&-2	1.7&-0.7	-3	4
51	Cc1c(C(=O)Nc2nc3ccccc3[nH]2)oc2c(Cl)cccc12	-2	-5	44	-0.1	2	-20
52	Cc1ccc(C(F)(F)F)cc1NC(N)=S	-7	0	7	-0.6	9	2
53	CC1=C(C(=O)N2CCCCCC2)CC(CC(=O)NC2CCCCC2)C(=O)N1CCC1=CCCCC1 (stereo not given)	.	4	.	-0.8	.	1
54	O=C1C=CC(=O)N1c1cccc2cccnc12	-6	-29	16	-0.4	.	0
55	CCOC(=O)N1CCN(c2cc(C)c(C(C)=O)cc2F)CC1	-2	2	23	0.7	-34	0
56	O=C(NCc1ccccc1)c1onc(CS(=O)(=O)c2ccccn2)c1C(=O)NCc1ccccc1	0	-1	0	0.9	9	-3
57	CN(CC(=O)Nc1ccc(Cl)c(C(F)(F)F)c1)C(=O)C1CCN(C(=O)c2ccc(Cl)cc2)CC1	-7	-6	-5	-0.7	.	.
58	N/C(=N\OC(=O)COc1ccc(Cl)cc1Br)c1cccnc1	-5	5	20	0.7	-1	11
59	O=C(Nc1cc(Cl)ccc1N1CCOCC1)c1ccc(N2CCCCC2)c([N+](=O)[O-])c1	-3	-1	21	0.1	.	-7
60	O=C(O)c1cc(-c2ccccc2Cl)n[nH]1	-12	0	31	4.7	0	2
61	Oc1ccc(/C=N/Nc2nn3cnnc3c3ccccc23)cc1	4	-89*	-4	0.9	-12	-90*
62	CCC1COCCS(=O)(=O)N1Cc1ccc(C)cc1 (stereo not given)	-14	1	-3	-0.6&-0.9	0	4
63	Cc1ccc(C2=NNC(C(O)C(O)C(O)C(O)CO)S2)cc1 (stereo not given)	14	1	10	4.2	2	-7
